# Assay outcomes: PubChem, several laboratories
# Env fusion inh – inhibitors of HIV Env-mediated cell fusion; HeLa-JRFL Env/CEM21 cell fusion, luciferase; inhibition, % at 12.3 µM; hit rate 1.1% among 360,000;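 active = mean replicate inhibition score of at least 50 and every replicate individually at or above 50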;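 also: 0% = plate neutral controls and 100% = maraviroc near 300 nM; one replicate is shown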
# CSC inhib – blocks cancer stem cells; cancer stem cell-like cells viability, luminescence; inhibition, % at 7.5 µM; hit rate 1.1% among 300,000;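 active = mean at 75% or more and at least half the replicates too; tested in HMLE shEcad cells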;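 also: 0% = median of negative and 100% = median of positive control wells; the first replicate is given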
# eIF4H FP inh – inhibitors of RNA binding by human eIF4H | Q15056 | eIF4H fluorescence polarization binding assay | inhibition, % at 35 µM | hit rate 0.94% among 290,000 | AID 2012;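 active = 50% or more with normal probe brightness, or confirmed in later tests; about a fifth of its hits are not listed in these tables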;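 also: calls also rest on retests at 20 µM and on dose response follow-up; 0% = protein and probe with vehicle and 100% = probe without protein; strong numbers were not always called active; many hits fall short of the cut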
# Rce1 inh – inhibitors of yeast Ras-converting enzyme; Q03530; yeast membranes, quenched prenylated peptide cleavage fluorescence; calls only; hit rate 0.27% among 290,000;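 active = fall in fluorescence gain of 50% or more versus controls, with final raw signal at or below 3038400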;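 also: plate controls were neutral control wells for no effect and wells lacking membranes for full effect; tested at 10 µM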
# Target sequence (Q03530 whole entry, looked up): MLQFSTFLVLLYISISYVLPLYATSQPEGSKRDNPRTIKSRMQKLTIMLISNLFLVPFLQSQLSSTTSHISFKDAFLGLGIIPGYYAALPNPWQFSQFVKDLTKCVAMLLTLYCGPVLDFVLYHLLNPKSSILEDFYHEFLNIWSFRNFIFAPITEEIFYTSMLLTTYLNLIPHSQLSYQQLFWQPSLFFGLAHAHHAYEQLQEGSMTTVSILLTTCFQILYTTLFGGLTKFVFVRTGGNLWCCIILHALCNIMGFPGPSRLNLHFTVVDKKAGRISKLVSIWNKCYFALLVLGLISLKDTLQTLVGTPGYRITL
# MT1-MMP act inh – MT1-MMP (human) activation inhibition; P50281; HT1080 RFP-PRO-GFP cells, GFP/RFP ratio fluorescence, overnight; percent of plate control window, DMSO zero; GFP/RFP ratio change, % at 20 µM; hit rate 0.061% among 360,000;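 active = GFP/RFP ratio change of at least 30% with cell ATP level not reduced by more than half and red fluorescence within 50% of control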; also: strong numbers were not always called active
#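 Assay system: HT1080 cells carrying an RFP-PRO-GFP reporter | Dosing: Single dose of 20 µM compound, 1% DMSO final | Incubation: Cells overnight before dosing, compound overnight, 37 °C, 5% CO2 | Evaluation: GFP/RFP fluorescence ratio | Control set: DMSO and RFP-L50D-GFP cell wells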
# PABP polyA inh – blocks human PABP binding to poly(A) RNA | P11940 | fluorescence polarization | inhibition, % at 35 µM | hit rate 1% among 290,000;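 active = 50% or more with normal probe brightness, or confirmed in later tests; about a fifth of its hits are not listed in these tables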;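 also: calls also rest on retests at 20 µM and on dose response follow-up; controls were probe without protein and protein plus probe with vehicle; some compounds called inactive have numbers as strong as hits; many hits fall short of the cut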
# Target sequence (P11940 whole entry, looked up): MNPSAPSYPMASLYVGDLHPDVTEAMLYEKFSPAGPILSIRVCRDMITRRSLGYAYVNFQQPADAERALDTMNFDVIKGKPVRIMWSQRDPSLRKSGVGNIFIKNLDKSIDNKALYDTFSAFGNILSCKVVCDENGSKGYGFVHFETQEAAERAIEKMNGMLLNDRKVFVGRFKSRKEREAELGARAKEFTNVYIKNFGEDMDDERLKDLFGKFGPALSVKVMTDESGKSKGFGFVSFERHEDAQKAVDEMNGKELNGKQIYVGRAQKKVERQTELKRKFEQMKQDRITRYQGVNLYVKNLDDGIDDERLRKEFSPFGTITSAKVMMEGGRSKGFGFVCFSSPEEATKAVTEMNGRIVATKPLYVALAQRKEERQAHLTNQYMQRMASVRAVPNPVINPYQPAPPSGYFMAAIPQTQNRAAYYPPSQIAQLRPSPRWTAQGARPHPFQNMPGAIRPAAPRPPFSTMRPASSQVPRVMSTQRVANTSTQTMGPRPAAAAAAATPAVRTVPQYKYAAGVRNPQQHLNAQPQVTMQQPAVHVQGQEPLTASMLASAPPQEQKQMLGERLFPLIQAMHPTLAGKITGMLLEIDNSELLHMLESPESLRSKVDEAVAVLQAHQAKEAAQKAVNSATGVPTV
# UUG fidelity – yeast start codon fidelity modulation. activity score, % at 18.7 µM. hit rate 0.13% among 350,000. S. cerevisiae UUG-firefly luciferase reporter, luminescence/redox ratio. AID 602363;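 active = replicate mean at a twofold rise or more, about +100% in these data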;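 also: firefly luciferase made from a UUG start codon reports start codon fidelity; reporter light over untreated wells divided by growth signal over untreated wells; some hits fall short of that in this replicate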
# eIF4H FP inh retest – further read-out of eIF4H FP inh, marked with its call; inhibition, %; compound at 20 µM; confirmation average;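 mean of two retest wells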
# PABP polyA inh retest – recorded beside PABP polyA inh, whose call it bears; inhibition, %; compound at 20 µM; confirmation repeats;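 mean of two retest wells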
# MT1-MMP act inh RFP – recorded beside MT1-MMP act inh, whose call it bears; RFP signal change, %; measured here: RFP expression control read;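 0 = vehicle wells; hits needed this value within 50% of zero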
# Active calls of the source: *; i = inactive; / = no result given. This is a subset; rates above refer to the full screens.
SMILES,Env fusion inh,CSC inhib,eIF4H FP inh,Rce1 inh,MT1-MMP act inh,MT1-MMP act inh RFP,PABP polyA inh,UUG fidelity,others
OCCC1CN(Cc2nc3ccccc3s2)CCN1C1CCCC1 (centres undefined),2.1,12.0,8.1,i,3.9,-0.6,-6.6,0.1,
COc1cccc(CN(C)CC(=O)Nc2ccccc2C(=O)Nc2ccccc2)c1OC,30.6,26.8,1.8,i,-4.7,-4.2,-1.1,0.1,
CN(CC(=O)Nc1ccc(Cl)cc1)C(=O)c1cccc(S(=O)(=O)N(C)C)c1,-28.3,-11.2,12.2,i,5.8,1.6,-4.7,/,
Cc1cc(-n2c(C)cc(C(=O)COc3ccc(Cl)cc3C(N)=O)c2C)no1,14.7,-15.8,/,/,-3.9,-15.6,/,-2.5,
COc1ccc(C(=O)N2CCN(c3ncccn3)CC2)cc1,/,-5.2,5.2,i,1.5,3.7,3.7,-4.3,
O=C(COC(=O)C1=COCCO1)Nc1ccc2c(c1)OCO2,-15.9,-9.1,-2.9,i,-4.5,-3.0,-3.6,-6.6,
Cc1ccsc1CCNC(=O)C1CCC(=O)N(CCc2cccc(F)c2)C1 (centres undefined),-44.0,-12.7,2.3,i,-1.6,3.5,4.8,10.4,
CCN(CC)S(=O)(=O)c1ccc2c(c1)[nH]c(=S)n2CC,-6.0,23.7,3.1,i,5.1,2.6,19.4,/,
Cc1ccccc1OCC(O)CN1C(=O)c2ccccc2C1=O (centres undefined),-38.5,-0.5,-7.9,i,-0.9,2.0,6.8,/,
CN1CCN(C(=O)c2ccc(CS(=O)Cc3ccc(Cl)cc3)o2)CC1 (centres undefined),-0.1,9.5,-13.8,i,1.8,1.6,-6.4,-0.7,
CCOC(=O)CSc1ccc(S(=O)(=O)N2CCC(C)CC2)cc1[N+](=O)[O-],/,/,44.4,i,-0.1,9.3,-1.5,-8.1,
O=C(CSc1nnc(-c2csc3c2CCCC3)o1)Nc1ccccc1,-231.7,16.2,3.2,i,-2.7,2.3,-0.1,-6.6,
CCn1c2ccccc2c2cc(NC(=O)Cc3ccc(S(=O)(=O)N4CCOCC4)s3)ccc21,-45.3,58.2,1.3,i,1.8,-2.8,4.8,-6.7,
O=C(O)CCc1cc(I)c(Oc2ccc(O)c(I)c2)c(I)c1,/,/,65.1*,i,/,/,49.9*,/,eIF4H FP inh retest=53.2*;PABP polyA inh retest=58.5*
COc1cc(OC)cc(C(=O)Nc2nc(CC(=O)NCc3ccccc3OC)cs2)c1,8.3,/,/,i,-1.0,-3.4,/,10.0,
CC1CCCCC1NC(=O)c1nnc(Cc2ccc(Cl)cc2)o1 (centres undefined),10.5,-23.9,3.2,i,1.3,6.5,10.9,-8.8,
COC(=O)/C=C1/SC(=Nc2ccc(Cl)c(Cl)c2)NC1=O,16.3,53.8,1.2,i,0.8,-4.7,0.8,-23.0,
O=C(C[n+]1cc(-c2ccc(Cl)c(Cl)c2)n2c1CCC2)c1cccs1,-17.8,14.2,-3.3,i,-0.7,-5.6,-18.1,-19.4,
Cn1c(=O)c2cc(NC(=O)NCCc3ccccc3)ccc2n1Cc1ccc(F)cc1,-13.3,/,/,/,23.6,-9.3,/,2.8,
COc1cccc(C2C(C(=O)c3ccc(C)o3)=C(O)C(=O)N2c2cc(C)on2)c1 (centres undefined),1.2,-6.1,-1.3,i,1.3,2.5,19.8,1.0,
O=C(NCCCN1CCCC1)c1ccc2c(c1)N(Cc1ccccc1F)C(=O)c1ccccc1S2=O (centres undefined),-1.8,12.5,-3.5,i,-3.5,0.3,-4.2,/,
COc1c(OC(C)=O)ccc(/C=C/c2ccc3cccc(OCc4ccccc4)c3n2)c1[N+](=O)[O-],-69.0,86.6*,-5.8,i,4.9,-4.7,15.0,/,
CCN(CC)c1ccc2c(cc1=O)[C@@H](NC)CCc1cc(OC)c(OC)c(OC)c1-2,-253.3,55.9,7.7,i,23.0,2.6,3.7,-6.0,
CCOC(=O)[C@@H]1[C@H]2COc3ccc(Br)cc3[C@@H]2N2C(=O)N(c3ccc(C(F)(F)F)cc3)C(=O)[C@@]12C,66.2*,21.1,-4.8,i,-4.0,-1.7,3.8,-19.1,
CCCOc1ccc(F)cc1-c1cc(C(=O)NCc2ccccc2OC)[nH]n1,0.1,/,/,/,-2.4,-7.7,/,-4.3,
Cc1[nH][nH]c(=O)c1C(c1ccc(-c2ccc(Cl)c(Cl)c2)o1)c1c(C)[nH][nH]c1=O,/,12.0,2.4,i,-3.2,1.3,22.8,-30.4,
C=C1CN(CC(=O)OC)S(=O)(=O)c2ccccc21,13.5,11.4,-11.7,i,3.7,-1.2,-4.9,-10.1,
O=[N+]([O-])c1ccc(-c2nnc(-c3ccccc3)c(N3CCOCC3)n2)cc1,-61.1,0.7,-3.1,i,10.2,-2.2,1.6,-20.6,
O=C(O)c1cc2n(n1)C(C(F)(F)F)CC(c1ccccc1)N2 (centres undefined),/,-10.3,-8.8,i,3.5,1.2,10.3,-10.4,
COCCn1c(-c2ccccc2)nc2ccccc21,-4.1,14.1,-4.4,i,2.6,1.8,1.9,-5.3,
CCOC(=O)c1nc2sc3c(c2c(=O)[nH]1)CCC(C)C3 (centres undefined),-3.6,3.3,11.4,i,-2.2,-1.0,12.2,/,
COc1cc(/C=N/N=C/c2c[nH]c(=O)c(C#N)c2Nc2ccccc2)ccc1O,/,-12.7,-7.5,i,/,/,19.4,/,
Cc1cc(C)c(C(=O)COC(=O)c2ccc(NC(=O)CC#N)cc2)cc1C,-2.6,14.4,-9.7,i,-1.7,-4.7,-8.5,-15.7,
O=C(NN1CCOCC1)c1ccc([N+](=O)[O-])cc1,-16.7,2.5,-4.6,i,0.2,-0.4,6.0,-2.3,
Cc1ccccc1-n1c(SCC(=O)c2c(N)n(C)c(=O)n(C)c2=O)nnc1-c1cccnc1,8.0,-7.8,-11.2,i,0.6,0.8,-6.5,/,
CCCNS(=O)(=O)c1ccc(CCC(=O)Nc2ccc3c(c2)OCCO3)cc1,-15.1,1.9,1.1,i,3.4,2.2,20.6,/,
COc1cc(OC)c(C(=O)NC2CC(C)(C)NC(C)(C)C2)cc1OC,/,9.1,-1.9,i,3.6,-1.4,-5.0,7.2,
COc1cccc(COC(=O)c2ccc(S(=O)(=O)N3CCC(C)CC3)cc2)c1OC,-2.1,-2.6,/,i,2.1,2.3,/,-8.4,
O=C(Cn1c(=O)cnc2ccccc21)N1CCN(S(=O)(=O)c2cccc([N+](=O)[O-])c2)CC1,2.1,-1.0,/,i,3.1,3.0,/,/,
CCOc1ccc(Br)cc1S(=O)(=O)Nc1cccnc1,-2.0,-14.4,-5.2,i,-3.6,-3.3,-1.9,-9.1,
CN(C)S(=O)(=O)c1ccc(Cl)c(NC(=O)CSc2nnnn2-c2ccc(O)cc2)c1,12.2,/,-2.0,i,-1.3,-7.6,-0.1,/,
O=C(CCN1C(=O)c2ccccc2C1=O)Nn1cnnc1,/,-2.3,-4.8,i,2.5,-1.2,-5.4,-17.7,
Cc1nn(-c2ccccc2)nc1C(=O)c1c(C)[nH]n(-c2ccccc2)c1=O,12.3,37.2,-1.9,i,0.7,6.0,21.2,-6.9,
CSc1cc(-c2ccccc2)n(Cc2ccc(Cl)cc2Cl)c(=O)c1C#N,/,-6.3,3.7,i,3.0,2.5,-1.9,-16.8,
CC(=O)Oc1ccccc1C(=O)Nc1ccccc1C(=O)N1CCCCC1,2.3,2.1,-8.1,i,1.4,2.1,-16.0,17.8,
CC1CCCC(C)N1C(=O)CSc1nnc(NC(=O)Cc2cccs2)s1 (centres undefined),-201.9,-10.6,-3.5,i,-3.7,-9.9,6.2,/,
CCc1ccc(NC(=O)CSc2nc(C)cs2)cc1,-27.9,/,/,/,1.3,-3.6,/,-17.1,
O=C(NNC(=O)c1ccccc1F)c1ccc(S(=O)(=O)N2CCCCC2)cc1,15.2,6.9,/,/,0.1,3.0,/,-16.5,
CC(=O)c1c(C)[nH]c(C(=O)Nc2ccc(Cl)c(S(=O)(=O)N3CCOCC3)c2)c1C,24.9,13.7,0.1,i,12.5,-5.0,1.2,/,
O=S(=O)(c1ccccc1)N1CCCCC1CCc1ccccc1 (centres undefined),30.7,/,/,/,0.3,-9.5,/,-3.0,
O=C(NCc1cccnc1)Nc1cccc([N+](=O)[O-])c1,6.4,-7.9,2.2,i,-1.1,1.7,20.9,-11.4,
CN(CC(=O)Nc1cccc(F)c1)C(=O)CCCc1c[nH]c2ccccc12,6.0,12.0,/,/,1.2,4.7,/,-0.9,
O=C(COC(=O)Cc1ccc(F)cc1)Nc1ccc(Cl)cn1,/,2.5,/,/,-1.5,0.9,/,-14.2,
O=C(N/N=C/c1ccccc1F)c1cc2c(ccc3ccccc32)o1,-190.0,10.0,24.5,i,-0.7,-0.3,-17.2,-21.5,
O=C(CO/N=C/c1ccccc1)N1c2ccccc2Oc2ccccc21,-29.3,14.1,1.9,i,-6.4,-1.9,2.5,-4.4,
COc1ccc(CCNC(=O)Cn2c(=O)n(-c3ccc(F)cc3)c(=O)c3sccc32)cc1OC,-25.6,/,-3.6,i,3.6,7.5,-1.1,-3.8,
O=C(N[C@@H](Cc1ccccc1)C(=O)N[C@@H](Cc1ccccc1)C(=O)O)OCc1ccccc1,-12.2,-12.9,/,i,-0.7,1.9,/,-2.7,
CCN(Cc1nc2cc(Cl)ccc2c(=O)[nH]1)C(=O)c1cccc(NC(=O)c2cccs2)c1,8.5,/,/,/,1.1,0.1,/,2.3,
Cn1c(=O)cc(SCC(=O)NCC2CCCO2)c2ccccc21 (centres undefined),-65.3,-16.9,-0.6,i,5.8,6.0,1.7,-8.9,
CCCC(=O)OCC(=O)Nc1ccc(N=Nc2ccccc2)cc1,-62.5,18.5,-10.2,/,3.3,1.3,-16.4,/,
# Further records.
SMILES,Env fusion inh,CSC inhib,eIF4H FP inh,Rce1 inh,MT1-MMP act inh,MT1-MMP act inh RFP,PABP polyA inh,UUG fidelity,others
COc1ccc(CC(=O)NCC2CCCN(Cc3ccccc3Cl)C2)cc1 (centres undefined),-2.8,-15.6,-9.3,i,0.7,0.6,-4.3,-1.5,
CN(Cc1ccon1)Cc1cn[nH]c1-c1ccc(-c2ccccc2)cc1,8.5,-7.9,6.0,i,0.0,0.9,2.8,/,
CCOC(=O)c1cc2c(=O)n3ccccc3nc2n(Cc2ccccc2)c1=N,5.8,-3.8,-10.2,i,-8.0,-1.1,-8.9,10.3,
Cc1csc2ncc(C(=O)N3CCc4ccccc43)c(=O)n12,16.1,-20.7,/,i,0.5,3.0,/,-18.2,
CCOC(=O)C1CCN(c2c(NCCC(C)C)c(=O)c2=O)CC1,-7.6,-12.6,-0.8,i,-5.4,4.6,3.4,-12.2,
Cn1c(CO)cnc1SCC(=O)c1ccc(Br)cc1,-2.0,-9.6,5.3,i,-6.5,0.4,-2.5,/,
C=CCC1(CC=C)CCCN1Cc1nc(COc2ccccc2)no1,13.8,9.4,59.3*,i,-8.7,5.6,5.7,-13.1,eIF4H FP inh retest=50.9*;PABP polyA inh retest=36.7

# Four records picked at random from the list so far:
SMILES,Env fusion inh,CSC inhib,eIF4H FP inh,Rce1 inh,MT1-MMP act inh,MT1-MMP act inh RFP,PABP polyA inh,UUG fidelity,others
Cc1csc2ncc(C(=O)N3CCc4ccccc43)c(=O)n12,16.1,-20.7,/,i,0.5,3.0,/,-18.2,
COc1ccc(CC(=O)NCC2CCCN(Cc3ccccc3Cl)C2)cc1 (centres undefined),-2.8,-15.6,-9.3,i,0.7,0.6,-4.3,-1.5,
C=CCC1(CC=C)CCCN1Cc1nc(COc2ccccc2)no1,13.8,9.4,59.3*,i,-8.7,5.6,5.7,-13.1,eIF4H FP inh retest=50.9*;PABP polyA inh retest=36.7
CCOC(=O)C1CCN(c2c(NCCC(C)C)c(=O)c2=O)CC1,-7.6,-12.6,-0.8,i,-5.4,4.6,3.4,-12.2,
